Source: PubChem BioAssay
Cruzain Triton – blocks cruzain activity in presence of Triton detergent; P25779; purified cruzain, Z-FR-AMC fluorescence, 0.01% Triton; Potency, µM, for inactives: max response, negative = inhibition, most hits filed as inhibitors; actives 0.43% (n = 200,000); active = well fitted curve in the direction sought with a large enough effect; inconclusive = small, poorly fitted or top-dose-only effect, or another doubt; inactive = no such curve, though single readings can be large; an effect the other way counts as inactive or inconclusive;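 note: plate controls were neutral wells for no effect and buffer without enzyme for full effect; nearly all actives have a fitted effect of over 40% in size; top concentration of the series not given in the record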
Target sequence (P25779 123-467 limits assumed): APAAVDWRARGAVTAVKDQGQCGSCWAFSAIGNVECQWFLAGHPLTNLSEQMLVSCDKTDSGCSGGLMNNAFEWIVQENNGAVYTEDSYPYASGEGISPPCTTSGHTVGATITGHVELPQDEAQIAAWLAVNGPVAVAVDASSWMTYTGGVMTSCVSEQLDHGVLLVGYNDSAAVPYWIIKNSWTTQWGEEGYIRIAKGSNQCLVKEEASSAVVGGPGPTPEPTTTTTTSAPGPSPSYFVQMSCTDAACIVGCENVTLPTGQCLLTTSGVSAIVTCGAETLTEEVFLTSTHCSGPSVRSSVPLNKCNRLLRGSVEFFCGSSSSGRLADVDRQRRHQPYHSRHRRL
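Steps: dispense cruzain (1.5 nM final) in acetate buffer pH 5.5 with DTT and 0.01% Triton X-100; pin-transfer compounds; incubate 15 min RT; add Z-FR-AMC (2 uM final); read fluorescence every 30 s, using the 60 s intensity change.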
MARV entry inh – inhibitors of Marburg virus binding or cell entry. AID 540276. actives 1.8% (n = 300,000). Marburg virus pseudotyped entry inhibition, cell reporter; control for the full effect not named in the record; about a third of the inactives were read at about 46 µM. Potency, µM (series often up to 37.8 µM), for inactives: at the highest dose activity change, negative = inhibition, hits mostly inhibitors; active = well fitted inhibition curve with a large enough effect; inconclusive = small, poorly fitted or top-dose-only effect, or effect the other way; inactive = flat fitted curve, though single readings scatter; tested in HEK293 cells; about a fifth of its hits are not listed in these tables; note: % is set by controls: 0 for no effect and ±100 for the full control effect; luciferase read-out
Cruzain noTriton – inhibitors of Trypanosoma cruzi cruzain without detergent; P25779; purified cruzain, Z-FR-AMC fluorescence, no detergent; Potency, µM, inactives show max response, negative = inhibition, hits mostly inhibitors; actives 2.3% (n = 200,000); active = well fitted curve in the direction sought with a large enough effect; inconclusive = small, poorly fitted or top-dose-only effect, or another doubt; inactive = no such curve, though single readings can be large; an effect the other way counts as inactive or inconclusive;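 note: plate controls were enzyme without inhibitor for no effect and buffer without enzyme for full effect; nearly all actives have a fitted effect of over 40% in size; top concentration of the series not given in the record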
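Detergent-free condition (0.00005% Triton X-100) in acetate buffer pH 5.5 with DTT. 1.5 nM enzyme and compound were pre-mixed 15 min, then 2 uM Z-FR-AMC substrate added; reaction progress from fluorescence change between first and third reads (60 s).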
NS1 inh – blocks influenza NS1 protein function. AID 2326. actives 0.4% (n = 270,000). Potency, µM (titrated, usually from 46.1 µM), for the others: top-dose activity, positive = more growth. S. cerevisiae slowed by influenza A NS1, growth recovery by OD600; note: actives are rising curves; nearly all actives have a fitted effect of over 50% in size
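A cell-based growth assay was used: compounds that relieve NS1-induced slow growth of budding yeast raise OD600. Assay medium was yeast nitrogen base with ammonium sulphate and -URA supplement, pH 6.0, with 2% galactose.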
RE007 growth inh – less growth of the S. pombe RE007 Vpr strain. S. pombe RE007 Vpr strain, BacTiter-Glo ATP luminescence, 24 h; control for the full effect not named in the record. Potency, µM (titrated, usually from 92.2 µM), for inactives: top-dose activity change, negative = less growth. actives 0.21% (n = 360,000); active = well fitted falling curve with a large enough effect; inconclusive = small, poorly fitted or top-dose-only effect; inactive = no such curve, though single readings can be large or run the other way;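 note: % is set by controls: 0 for no effect and ±100 for the full control effect; nearly all actives have a fitted effect of over 50% in size; the assay follows cell death caused by Vpr and the record does not say whether a fall means rescue or toxicity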
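Fission yeast strain RE007, carrying one chromosomally integrated HIV-1 vpr copy, was seeded at OD 0.01 in PMG+AL medium with 23 nL pinned compound. After 24 h at 30 °C and 99% humidity, viability was read by BacTiter-Glo luminescence.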
SARS PLP yeast – inhibitors of SARS-CoV papain-like protease in yeast. S. cerevisiae expressing SARS-CoV PLpro, growth rescue; control for the full effect not named in the record. Potency, µM (series often up to 32.9 µM), without a hit: top-dose activity, positive = growth rescue. actives 0.19% (n = 330,000). AID 485353; note: 0% is about no effect; nearly all actives have a fitted effect of over 55% in size; growth read by luminescence after 48 h
StopGo reporter – lowers the luciferase signal of an FMDV 2A StopGo reporter. actives 1.2% (n = 410,000). Potency, µM (series often up to 57.9 µM), for the others: at the highest dose signal change, negative = less light. human cells with a luciferase reporter of 2A StopGo recoding; control for the full effect not named in the record; active = well fitted falling curve with a large enough effect; inconclusive = small, poorly fitted or top-dose-only effect; inactive = no such curve, though single readings can be large or run the other way; tested in HEK293T cells; note: % is set by controls: 0 for no effect and ±100 for the full control effect; nearly all actives have a fitted effect of over 45% in size; luciferase light after 4 h
LASV entry inh – inhibitors of Lassa virus binding or cell entry; AID 540256; Lassa virus pseudotype entry inhibition, cell reporter; control for the full effect not named in the record; actives 1.2% (n = 300,000); Potency, µM (titrated, usually from 37.9 µM), without a hit: at the top dose activity change, negative = inhibition, most hits filed as inhibitors; active means well fitted inhibition curve with a large enough effect; inconclusive means small, poorly fitted or top-dose-only effect, or effect the other way; inactive means flat fitted curve, though single readings scatter; tested in HEK293 cells; note: % is set by controls: 0 for no effect and ±100 for the full control effect; nearly all actives have a fitted effect of over 50% in size; luciferase read-out
An asterisk follows results filed as active; & = joins results of further samples; [ ] = dose if it differs, or a comment. Unless noted, calls come from the whole dose curve; as a rule, active means well fitted rising curve with a large enough effect; inconclusive means small, poorly fitted or top-dose-only effect; inactive means no such curve, though single readings can be large or run the other way. Potency is the fitted concentration of half-maximal effect.

Results for NS(=O)(=O)c1cc(C(=O)OCCNC(=O)c2ccccc2)c(Cl)cc1Cl ?
MARV entry inh: 5%[46.1 µM]; RE007 growth inh: 0%; StopGo reporter: -3%; LASV entry inh: 3%

How did O=C(NCc1ccco1)c1ccc(NS(=O)(=O)c2cccc(F)c2)cc1 do in these assays?
NS1 inh: 5%; RE007 growth inh: 8%; SARS PLP yeast: -2%; StopGo reporter: -13%

How did O=C(NCCC1CCCCN1S(=O)(=O)c1cccs1)C(=O)NCc1ccccc1 (stereo unspecified) do in these assays?
MARV entry inh: inconclusive; RE007 growth inh: 15%; SARS PLP yeast: 1%; StopGo reporter: -9%; LASV entry inh: inconclusive

How did COc1ccc(S(=O)(=O)N2CCOCC2)cc1NC(=O)CN1CCCc2ccccc21 do in these assays?
MARV entry inh: -18%[46.1 µM]; RE007 growth inh: 2%; SARS PLP yeast: 8%; StopGo reporter: 12%; LASV entry inh: inconclusive

How did COC(=O)N/N=C/c1cn(Cc2ccc(Cl)cc2Cl)c2ccccc12 do in these assays?
Cruzain Triton: -8.4%; MARV entry inh: 13µM*; Cruzain noTriton: 12%; NS1 inh: 5%; RE007 growth inh: 12%; SARS PLP yeast: -4%; StopGo reporter: -11%; LASV entry inh: inconclusive

What do the screens show for `COc1ccc(N2CCOCC2)c(NC(=O)COc2cccc(C)c2C)c1`?
MARV entry inh: inconclusive; NS1 inh: 0%; RE007 growth inh: 4%; SARS PLP yeast: 2%; StopGo reporter: 0%; LASV entry inh: -21%

Results for O=C(NN1CCOCC1)c1cc(S(=O)(=O)Nc2cccc(C(F)(F)F)c2)ccc1Cl ?
Cruzain Triton: -2.0%; MARV entry inh: 0%[46.1 µM]; Cruzain noTriton: 1%; NS1 inh: 1%; RE007 growth inh: -14%; SARS PLP yeast: 17%; StopGo reporter: 13%; LASV entry inh: 2%[46.1 µM]

How did Cc1ccc2ccc3cc(C(=O)N4CCN(c5ccccc5)CC4)nc3c2[nH]1 do in these assays?
Cruzain Triton: -5.4%; Cruzain noTriton: 3%; StopGo reporter: inconclusive; LASV entry inh: inconclusive

What do the screens show for `CCCOc1ccc(-c2nc(SC)[nH]c(=O)c2C#N)cc1OC`?
Cruzain Triton: -5.7%; MARV entry inh: inconclusive; Cruzain noTriton: -12%; StopGo reporter: -18%; LASV entry inh: inconclusive

Results for c1ccc(C2=Nn3c(nnc3-c3cc(-c4ccccc4)n[nH]3)SC2)cc1 ?
Cruzain Triton: -6.9%; MARV entry inh: inconclusive; Cruzain noTriton: -6%; NS1 inh: -83%; RE007 growth inh: 5%; SARS PLP yeast: -1%; StopGo reporter: inconclusive; LASV entry inh: 16µM*

What do the screens show for `O=C(c1ccc(Br)o1)N(Cc1ccccc1)Cc1ccccc1`?
Cruzain Triton: -1.7%&-2.9%; MARV entry inh: 1%; Cruzain noTriton: -3%&-7%; NS1 inh: -115%; RE007 growth inh: 6%; SARS PLP yeast: -56%; StopGo reporter: 0%; LASV entry inh: 0%

What do the screens show for `CC(C)CNC(=O)COC(=O)c1ccccc1OCC(=O)Nc1ccc(Br)cc1`?
Cruzain Triton: -1.6%; MARV entry inh: 8%; Cruzain noTriton: -8%; NS1 inh: -5%; SARS PLP yeast: 7%; StopGo reporter: -8%; LASV entry inh: 3%

What do the screens show for `COc1cccc(C(=O)Nc2cc(S(=O)(=O)N3CCCCC3)ccc2OC)c1`?
MARV entry inh: -8%[46.1 µM]; RE007 growth inh: 6%; SARS PLP yeast: 0%; StopGo reporter: 3%; LASV entry inh: -24%[46.1 µM]

How did Cc1ccc(OC(C)C(=O)O)cc1C (stereo unspecified) do in these assays?
Cruzain Triton: 0.4%; MARV entry inh: 15%; Cruzain noTriton: 1%; NS1 inh: 3%; RE007 growth inh: 4%; SARS PLP yeast: -4%; StopGo reporter: -14%; LASV entry inh: 12%

Results for Cc1ccc(OCC(=O)c2c(O)c3ccccc3oc2=O)cc1C ?
Cruzain Triton: -3.5%; MARV entry inh: 5%; Cruzain noTriton: -9%; NS1 inh: 12%; RE007 growth inh: -2%; SARS PLP yeast: -5%; StopGo reporter: -8%; LASV entry inh: -1%

Results for CC(C)(C)OC(=O)N1CCC(c2c(C(=O)NCc3ccc4c(c3)OCO4)cnn2-c2ccc(F)cc2F)CC1 ?
Cruzain Triton: -8.7%; Cruzain noTriton: 12%; StopGo reporter: -10%; LASV entry inh: -31%[46.1 µM]

What do the screens show for `COC(=O)Cn1c2ccc(OC)cc2c2nc(C)sc21`?
MARV entry inh: 3%[46.1 µM]; NS1 inh: -4%; RE007 growth inh: -1%; SARS PLP yeast: -1%; StopGo reporter: 4%; LASV entry inh: 7%

How did COc1cc2c(cc1OC)C(c1cccc(Cl)c1)CC(=O)N2 (stereo unspecified) do in these assays?
Cruzain Triton: -6.5%; MARV entry inh: 0%; Cruzain noTriton: 3%; NS1 inh: 3%; RE007 growth inh: -2%; SARS PLP yeast: -10%; StopGo reporter: -8%&-2%; LASV entry inh: inconclusive

What do the screens show for `CCSc1nnc(NS(=O)(=O)c2ccc(C)cc2)s1`?
Cruzain Triton: -1.1%; MARV entry inh: -14%; Cruzain noTriton: 3%; NS1 inh: -8%; RE007 growth inh: 18%; SARS PLP yeast: 4%; StopGo reporter: 42%[activator]; LASV entry inh: -13%

How did COc1ccc(S(=O)(=O)NC2CC(C)(C)NC(C)(C)C2)cc1 do in these assays?
NS1 inh: -5%; RE007 growth inh: 0%; SARS PLP yeast: -2%; StopGo reporter: -9%

What do the screens show for `O=C(CSc1nnc(COc2ccccc2)n1Cc1ccco1)c1ccc(F)cc1`?
Cruzain Triton: -5.0%; MARV entry inh: 0%; Cruzain noTriton: 10%; NS1 inh: -10%; RE007 growth inh: 0%; SARS PLP yeast: -4%; StopGo reporter: -30%; LASV entry inh: 9%

How did COCC(=O)NCc1ccc2c(c1)cc(C)n2C do in these assays?
Cruzain Triton: -2.0%; MARV entry inh: inconclusive; Cruzain noTriton: 1%; NS1 inh: 7%; RE007 growth inh: inconclusive; SARS PLP yeast: -6%; StopGo reporter: -11%; LASV entry inh: 28%&-4%

How did COc1ccc(NC(=O)C(C)N2CCN(C)CC2)cc1 (stereo unspecified) do in these assays?
MARV entry inh: 1%[46.1 µM]; NS1 inh: 4%; RE007 growth inh: 10%; SARS PLP yeast: -1%; StopGo reporter: 0%; LASV entry inh: 2%[46.1 µM]

How did CCOC(=O)C1=C(C)NC2=C(C1c1ccc([N+](=O)[O-])cc1)S(=O)(=O)c1ccccc12 (stereo unspecified) do in these assays?
Cruzain Triton: -2.3%; MARV entry inh: inconclusive; Cruzain noTriton: -7%; NS1 inh: 1%; RE007 growth inh: 1%; SARS PLP yeast: 17%; StopGo reporter: -6%; LASV entry inh: inconclusive

What do the screens show for `COc1ccc(C(=O)N2CCSC2=S)cc1OC`?
Cruzain Triton: -1.3%; MARV entry inh: inconclusive; Cruzain noTriton: -7%; NS1 inh: -10%; RE007 growth inh: -10%; SARS PLP yeast: -8%; StopGo reporter: -29%; LASV entry inh: -16%

What do the screens show for `CSc1nsc(SCC(=O)Nc2ccc(C(C)=O)cc2)n1`?
Cruzain Triton: -7.9%; MARV entry inh: 3%; Cruzain noTriton: -9%; NS1 inh: -6%; RE007 growth inh: -21%; SARS PLP yeast: -5%; StopGo reporter: 39%[activator]; LASV entry inh: 11%

How did O=C(CSc1nc(-c2ccco2)cc(C(F)(F)F)n1)NCCCN1CCOCC1 do in these assays?
MARV entry inh: -22%; NS1 inh: 3%; RE007 growth inh: 12%; SARS PLP yeast: 0%; StopGo reporter: -13%; LASV entry inh: 3%

How did Cc1cc(C)c(NC(=O)C2CCCN2CCO)c(C)c1 (stereo unspecified) do in these assays?
Cruzain Triton: 0.7%; MARV entry inh: -1%; Cruzain noTriton: 4%; NS1 inh: 3%; RE007 growth inh: -3%[3.69 µM]; SARS PLP yeast: -1%; StopGo reporter: -22%; LASV entry inh: 0%

How did CCC(C)Oc1nc2c(c(=O)n(C)c(=O)n2C)n1C (stereo unspecified) do in these assays?
MARV entry inh: 3%[46.1 µM]; NS1 inh: -7%; RE007 growth inh: -12%; SARS PLP yeast: 1%; StopGo reporter: 7%; LASV entry inh: -11%[46.1 µM]

How did Cc1ccccc1CSCCNC(=O)c1ccc(Cl)c(S(=O)(=O)N2CCOCC2)c1 do in these assays?
Cruzain Triton: -6.0%; MARV entry inh: -8%; Cruzain noTriton: inconclusive; NS1 inh: 10%; RE007 growth inh: 13%; SARS PLP yeast: 9%; StopGo reporter: inconclusive; LASV entry inh: inconclusive

How did O=C(c1cnn(C(=O)c2cccc(S(=O)(=O)N3CCOCC3)c2)c1)c1cc(Cl)cc(Cl)c1O do in these assays?
MARV entry inh: -10%[46.1 µM]; NS1 inh: -5%; RE007 growth inh: -9%; SARS PLP yeast: -2%; StopGo reporter: -16%; LASV entry inh: 6%

Results for O=C(CNS(=O)(=O)c1cccs1)Nc1ccc2c(c1)OCCO2 ?
Cruzain Triton: 2.3%; MARV entry inh: 22%; Cruzain noTriton: -4%; NS1 inh: 6%; RE007 growth inh: -4%; SARS PLP yeast: 8%; StopGo reporter: 34%[activator]; LASV entry inh: 16%

Results for N#Cc1ccc(C(=O)NCCCSc2ccccc2)cc1 ?
MARV entry inh: 0%[46.1 µM]; NS1 inh: -59%; RE007 growth inh: 16%; SARS PLP yeast: -4%; StopGo reporter: 12%; LASV entry inh: -10%

What do the screens show for `O=S(=O)(c1ccc2c(c1)OCCO2)N1CCN(c2ncnc3sccc23)CC1`?
MARV entry inh: inconclusive; RE007 growth inh: 13%; SARS PLP yeast: -2%; StopGo reporter: inconclusive; LASV entry inh: inconclusive
